NPYLR7 ag – agonists of mosquito NPYLR7 receptor, primary screen, cell-based, Aedes aegypti, calcium fluorescence, mosquito biting behavior | HEK293T NPYLR7/Galpha15, GCaMP6s calcium fluorescence | activation, % at 10 µM | 270,000 compounds, 0.15% hits | AID 1259423, 2018; in the data active = activation above about 40%;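 note: 0% = vehicle and 100% = reference agonist at the receptor; some compounds past the cut are filed as inactive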
NPYLR7 ag max-min – second read-out of NPYLR7 ag, no call of its own (marks repeat the call); activation, %; measured here: Max-Min RFU normalised activation; some inactives read as strong as hits;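 span of the calcium signal over five minutes; 0% = vehicle and 100% = native peptide agonist; compound fluorescence can raise it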
* hit, by the source's call; & = joins results of further samples. This is a subset (hit frequency here may not be typical).

Order of results – NPYLR7 ag	NPYLR7 ag max-min
[1] c1nc2c([nH]1)CCNC2c1cnc(N2CCOCC2)nc1 (stereo not drawn)
→ 13	10
[2] CCCC(=O)N1CCC(N2CCC3(CCN(C)C3)CC2)CC1
→ 12	8
[3] Cn1cc(NC(=O)N(CCO)CCO)c2ccccc21
→ 3	-7
[4] Cc1ccc(CCC(=O)OCc2nc(N)nc(N)n2)cc1Cl
→ 3	1
[5] CCc1ccc(C(C2Sc3nc(CC)nn3C2=O)N2CCN(C(=O)c3ccco3)CC2)cc1 (stereo not drawn)
→ -4	-5
[6] CCc1c(C)nc(-n2nc(C)cc2C)n(CC(=O)Nc2ccc(OC)c(OC)c2)c1=O
→ 2	0
[7] Cn1ccc(NC(=O)CN2CCCC3(CC2)CNC(=O)O3)n1 (stereo not drawn)
→ 9	22
[8] CC(C)(C)c1ccc(S(=O)(=O)NC(=O)C2(C)CCN2C(=O)C2(c3ccc(Cl)cc3)CCC2)cc1 (stereo not drawn)
→ -1	-3
[9] COc1ccc(Cn2nc(C(=O)NC3CCCC3)c3c2CCN(Cc2ccc4c(c2)CCO4)C3)cc1
→ 17	12
[10] COc1cc(C(C)=O)ccc1Oc1cnccn1
→ 0	-4
[11] C=c1cc(C)n(CC(=O)Nc2cc(OC)ccc2OC)c(=O)c1=C1N=C(c2ccc(OC)cc2)NO1
→ -2	-5
[12] CN1CCN(c2cc(=O)n(-c3ccc(Cl)cc3)c(=O)[nH]2)CC1
→ 8	10
[13] Cc1nc(CN2CC(OCc3ccncc3)CN(Cc3ccc4c(c3)CCO4)CC2=O)cs1 (stereo not drawn)
→ 18	7
[14] CC(C)COc1nc(-c2ccccc2F)n(-c2ccc(NC(=O)COCc3ccccc3)cc2)n1
→ 13	17
[15] N#Cc1cc(-c2ccccc2)sc1NC(=O)Cn1cc(C2CC2)nn1
→ 3	1
[16] CC1C(=O)N(c2ccc(F)cc2F)CCN1C(=O)c1cccc(F)c1 (stereo not drawn)
→ -1	8
[17] O=C1CCCCN1CCc1nc(C2(c3ccc(F)cc3)CCOC2)no1 (stereo not drawn)
→ 3	-1
[18] Cc1cn([C@H]2C[C@@H](N=[N+]=[N-])[C@@H](CO)O2)c(=O)[nH]c1=O
→ 6	-5
[19] COC(=O)CN1CCC(NC2CCCNC2)CC1 (stereo not drawn)
→ 21	9
[20] COCCN(CC(=O)N(CCc1c[nH]c2ccccc12)Cc1ccc(F)cc1)C(=O)c1cccc(Cl)c1
→ 23	32

Next section:
Order of results – NPYLR7 ag	NPYLR7 ag max-min
[21] N#Cc1ccsc1NC(=O)Cc1cc(Cl)c2c(c1)OCCCO2
→ 5	4
[22] CN(Cc1nc2ccccc2[nH]1)C(=O)c1cccc(OC2CCN(CC(C)(C)C)CC2)c1
→ 11&2	3&-1
[23] Cc1cc(=O)n(-c2ccc3c(S(=O)(=O)O)cc(S(=O)(=O)O)cc3c2)[nH]1
→ -8	-17
[24] COC(=O)C(C)(Cc1ccccc1)NC(=O)c1ccc(-n2nc(-c3ccc(Cl)c(Cl)c3)cc2N)cc1 (stereo not drawn)
→ 30	12
[25] Cn1cc(CCN2Cc3cnc(C(=O)N4CCNC(=O)CC4)cc3C2)c2ccccc21
→ 21	8
[26] CN1CCN(C(=O)Cn2c(-c3ccoc3)nc(-c3ccccc3)c2-c2ccccc2)CC1
→ 13	8
[27] O=C1CCC(=O)N1CO
→ -6	-16
[28] CCC(C(=O)N1CCC2(CC1)NC(C(=O)NCCc1ccc(Cl)cc1Cl)CS2)c1ccccc1 (stereo not drawn)
→ -5	-5
[29] C=CCN(CC=C)C(=O)CN1CCN(S(=O)(=O)N2CCCC2)CC1
→ 20	6
[30] CCCNC(=O)N1CCN(c2ccc(Cl)cc2Cl)C(=O)C1C (stereo not drawn)
→ 0	2
[31] CCOC(=O)Cn1c(C2CC(=O)N(c3cccc(C)c3)C2)nc2ccccc21 (stereo not drawn)
→ 3	-1
[32] CCn1c(SCC(=O)Nc2ccc(C(=O)OC)cc2)nnc1-c1cccn(C)c1=O
→ 2	1
[33] Nc1nc(CCC(=O)N2CCOC(CC3CCCCC3)C2)cs1 (stereo not drawn)
→ -6	-7
[34] COc1ccc(OC)c(C(C)NC(=O)CCC(=O)c2ccc(F)cc2F)c1 (stereo not drawn)
→ 0	10
[35] COC(F)(C(=O)Nc1ccc(C)c(Br)c1)C(F)(F)F (stereo not drawn)
→ 6	11
[36] COc1ccc(-n2c(SCC(=O)N3CCN(C(=O)c4cc(OC)cc(OC)c4)C(C)C3)nnc2-c2ccc(C)cc2)cc1 (stereo not drawn)
→ 20	20
[37] O=C(CCl)NCC1(c2ccc3c(c2)OCCO3)CCCC1
→ -8	-10
[38] CCN(CC)S(=O)(=O)c1ccc2oc3c(c(=O)c2c1)c(=O)n(C)c(=O)n3C
→ 14	15
[39] Cc1ccc(-c2noc(CCN(Cc3ccccc3)CC(O)Cc3ccccc3)n2)cc1Cl (stereo not drawn)
→ 28	27
[40] O=c1c2cnc3ncnn3c2ccn1-c1ccc(O)cc1
→ 3	2

2 entries from above, set out differently.
(14) CC(C)COc1nc(-c2ccccc2F)n(-c2ccc(NC(=O)COCc3ccccc3)cc2)n1
(15) N#Cc1cc(-c2ccccc2)sc1NC(=O)Cn1cc(C2CC2)nn1

| assay / compound | 14 | 15 |
| --- | --- | --- |
| NPYLR7 ag | 13 | 3 |
| NPYLR7 ag max-min | 17 | 1 |

The listing picks up, repeating the two entries before the break.
Order of results – NPYLR7 ag	NPYLR7 ag max-min
[39] Cc1ccc(-c2noc(CCN(Cc3ccccc3)CC(O)Cc3ccccc3)n2)cc1Cl (stereo not drawn)
→ 28	27
[40] O=c1c2cnc3ncnn3c2ccn1-c1ccc(O)cc1
→ 3	2
[41] O=C(CC(NCCO)C(=O)O)Nc1cccc2ccccc12 (stereo not drawn)
→ 6	1
[42] Nc1cc(-c2cccc(Cl)c2)nn1-c1ccc(C(=O)N2CCCCC2)cc1
→ -6	-10
[43] Cc1nn(C)c(C)c1CNC(c1ccc2c(c1)OCCO2)C(C)C (stereo not drawn)
→ 9	5
[44] Brc1cnc(NCn2nnc3ccccc32)c(Br)c1
→ -2	-5
[45] COc1ccc(F)c(-c2cnc(N)nc2)c1
→ 0	13
[46] CCc1nc2ccc(C(=O)Nc3ccc(OC)c(OC)c3)cn2c1N(C)Cc1cc2ccccc2s1
→ 16	9
[47] CCS(=O)(=O)c1ccc(C(=O)N=c2sc3cccc(Cl)c3n2C)cc1
→ -7	-10
[48] Cc1ccccc1C(=O)NC(C(=O)N1CCCC1)C1CCN(S(=O)(=O)C(C)C)CC1 (stereo not drawn)
→ 3	11
[49] O=C(CC1(O)C(=O)Nc2ccc(Cl)cc21)c1cccs1 (stereo not drawn)
→ 2	-2
[50] O=S1(=O)N=C(N2CCC(c3nc4ccccc4s3)CC2)c2ccccc21
→ 1	-1
[51] CC(NC(=O)C1CCN(Cc2cccn2C)CC1)c1ccc(F)cc1 (stereo not drawn)
→ -7	-2
[52] O=C(Cc1c[nH]c2ccccc12)NC1CCCN(CCCc2ccccc2)C1 (stereo not drawn)
→ -10	-10
[53] CCc1nc2ccc(C(=O)Nc3cccc(NS(C)(=O)=O)c3)cn2c1N(C)C(=O)c1ccncc1
→ 15	12
[54] CC(NC(=O)c1cn(C)nc1-c1cccnc1)C12CC3CC(CC(C3)C1)C2 (stereo not drawn)
→ -2	0
[55] CNC(=O)Cn1c2c(c3ccccc31)C[C@H]1C[C@@H]2[C@@H](OC)CN1C(=O)N1CCOCC1
→ 28	25
[56] Cc1cc(C)cc(NC(=O)c2c[nH]c3c(c(C)nn3-c3ccccc3)c2=O)c1
→ 5	16
[57] OCC1(Cc2ccc(Cl)cc2)CCN(c2ncccc2F)CC1
→ 30	23
[58] CN(C)C(=O)c1cccnc1SCc1cc(=O)[nH]c(C2CC2)n1
→ 8	11
[59] O=C(c1nnc2n1CCN(Cc1ccc(-c3ccccc3)cc1)C2)N1CCCCC1
→ 11	3
[60] Cc1cc(Cc2ccc(S(=O)(=O)NCc3ccccc3)cc2)c(=O)[nH]n1
→ 0	-2

Further structures follow:
Order of results – NPYLR7 ag	NPYLR7 ag max-min
[61] COc1ccc(Br)c(Cn2c(C)c(C(=O)NCc3ccc4c(c3)OCCO4)sc2=O)c1
→ -9	-9
[62] COCCCn1c(C)cn2c3c(=O)n(Cc4ccc(Br)cc4)c(=O)n(C)c3nc12
→ 11	5
[63] O=C(NCc1ccccn1)c1ccc(Cl)cc1Cl
→ 7	3
[64] O=C(CC1CC2CCC1C2)Nc1ccccc1S(=O)(=O)N1CCOCC1 (stereo not drawn)
→ 0	0
[65] OCCNc1ncnc2ccc(-n3ccc(-c4cccnc4)n3)cc12
→ 13	15
[66] COc1cccc(Cn2nc(C(=O)NC3CC3)c3c2CCN(C(=O)c2cccs2)C3)c1
→ 22	7
[67] COc1ccc(CN(CCc2c[nH]c3ccccc23)C(=O)CN(C(=O)COCc2ccccc2)C2CC2)cc1
→ 20	21
[68] COCCn1cnc2cc(NC(=O)C3CCCCC3)cc(C(=O)N3CCc4sccc4C3)c21
→ 7	-2
[69] CN(Cc1nc(-c2ccccc2)no1)C(=O)c1ccc(C#CC(C)(C)O)o1
→ 18	11
[70] Oc1cccc(CN2CCC(NC[C@]3(O)CCCN4CCCC[C@@H]43)CC2)c1
→ 12	1
[71] CC1CN(c2ncnc3c2cnn3CCNC(=O)c2cccc(C(F)(F)F)c2)CC(C)O1 (stereo not drawn)
→ -2	-4
[72] Cn1ncc(Cl)c1C(=O)NCc1ccc2[nH]c3c(c2c1)CCCCC3
→ 1	-5
[73] COCCn1c(=O)c2c(nc3n(C4CCCC4)c(C)cn23)n(C)c1=O
→ -6	-9
[74] CCc1[nH]c2ccc(CNC(=O)[C@@H]3CCCN3C(C)=O)cc2c1C
→ 0	-14
[75] O=C1CN(C(=O)CNc2cc3c(cc2Cl)OCCO3)CCN1
→ -6	-5
[76] O=C(CNS(=O)(=O)c1cc(F)c(F)cc1F)Nc1cccnc1
→ 0	-1
[77] O=C(NCc1cccnc1)c1ccc2sc([C@H]3C[C@H](O)[C@@H](CO)O3)nc2c1
→ 4	4
[78] COc1ccc(S(=O)(=O)Oc2ccc(CN(Cc3ccc(F)cc3)C(=O)c3ccccc3Cl)cc2)cc1
→ -3	-8
[79] Cc1ccc(S(=O)(=O)N2CCCCC2C(N)=O)cc1C (stereo not drawn)
→ 1	2
[80] CC(C)(C)c1ccc2oc(=O)n(C3CCN(C(=O)c4ccnc(Cl)c4)CC3)c2c1
→ 23	30

The list continues:
Order of results – NPYLR7 ag	NPYLR7 ag max-min
[81] COc1cccc(-c2ccc3nnc(-c4cccc(OC(F)(F)F)c4)n3c2)c1
→ 13	7
[82] Cc1nc(C)c(Cc2ccccc2F)c(N2CCN(C(=O)c3ccccc3Cl)CC2)n1
→ 4	7
[83] C=C(Br)CN1CCCC(C(=O)NCC(F)(F)F)C1 (stereo not drawn)
→ 3	4
[84] O=C(Nc1cccc(-c2cccc(Cl)c2)c1)C1CCN(C2CCOCC2)CC1
→ -4	-7
[85] CCOC(=O)N1CCC(N(C)C2CCCN(CCCc3ccccc3)C2)CC1 (stereo not drawn)
→ 9	3
[86] O=C(Nc1ccccc1C(F)(F)F)c1cc2nc(-c3ccc(F)cc3)cc(C(F)(F)F)n2n1
→ -8	-12
[87] C=CCN1C(=O)NC(c2cc(OC)cc(OC)c2)C2=C1CN(Cc1cccnc1)C2=O (stereo not drawn)
→ -5	3
[88] CCn1nc(CC(C)C)cc1C(=O)N1CCn2cncc2C1
→ -3	-9
[89] O=C(Cn1c(SCCOc2ccc(Cl)cc2)nc2ccccc21)N1CCOCC1
→ 1	7
[90] Cc1noc2ncc(NC(=O)CSC(F)(F)F)cc12
→ -24&-2	-27&44
[91] CCN1CC(Nc2nc(-c3ccncc3)nc3c2CNC3)CC1=O (stereo not drawn)
→ 9	6
[92] FC(F)Oc1ccc(NC(=S)Nc2ccc3cn[nH]c3c2)cc1
→ -6	-15
[93] CCOc1ccc(-c2ccc(=O)n(CC(=O)NCc3ccc(Cl)cc3)n2)cc1
→ 10	5
[94] O=C(Nc1nc2ccccc2s1)NC1CCN2CCCCC12 (stereo not drawn)
→ 2	1
[95] CON(C)S(=O)(=O)c1ccc(C(=O)NCCc2ccccc2C)cc1
→ 1	1
[96] COc1cc(C(=O)N2CCN(C(=O)CCC3CCCC3)CC2)cc(OC)c1OC
→ 4	2
[97] CC(C)N(Cc1cnn(C)c1)C(=O)/C=C/c1ccccc1
→ -2	-4
[98] O=C1N(Cc2ccccn2)C(=O)C2(CCN(Cc3ccoc3)CC2)N1Cc1ccccc1
→ 10	3
[99] CCCCCCCCOc1ccc(-c2nc(-c3ccc(OCCCCCC)cc3)no2)cc1
→ -9	-7
[100] O=C(Nc1cccc(Oc2ccccc2)c1)c1c[nH]c(=O)c(Cl)c1
→ -2	-11

Pulled one by one from the list above (two):
Order of results – NPYLR7 ag	NPYLR7 ag max-min
[90] Cc1noc2ncc(NC(=O)CSC(F)(F)F)cc12
→ -24&-2	-27&44
[97] CC(C)N(Cc1cnn(C)c1)C(=O)/C=C/c1ccccc1
→ -2	-4

Further entries follow:
Order of results – NPYLR7 ag	NPYLR7 ag max-min
[101] Cc1ccccc1CN1CCC(CNC(=O)c2ccc[nH]c2=O)C1 (stereo not drawn)
→ 27	18
[102] CC(C)C(=O)Nc1ccc(Oc2ccc(S(N)(=O)=O)cc2)cc1
→ 4	3
[103] Cc1nccc(N2CCC(Cc3n[nH]c(=O)n3-c3ccccc3)CC2)n1
→ 16	6
[104] CCOC(=O)C1(C/C=C/c2ccccc2)CCCN(C(=O)CCc2ccco2)C1 (stereo not drawn)
→ 19	12
[105] CCCCCCC1OCC2(CO1)C(C)C=C(C)CC2C (stereo not drawn)
→ -2	2
[106] NC(=O)CCN(C(=O)c1ccc2c(c1)CCO2)c1ccccc1
→ 6	3
[107] Cc1ccc(F)cc1S(=O)(=O)N1CCN(c2nccc(-c3ccc(-n4ccnc4)cc3)n2)CC1
→ -13	-4
[108] CN(C)c1ccc(C2NCC(CSc3ncnc4sc5c(c34)CCC5)O2)cc1 (stereo not drawn)
→ 7	7
[109] C=CCN(Cc1ccc(C)s1)C(=O)c1cnc2sc(C)c(C)n2c1=O
→ -1	-1
[110] Cc1ccc(F)cc1C(=O)N1CCN(c2nc3nccc(-c4cccs4)n3n2)CC1
→ 0	0
